D2 potentiator = potentiates the human D2 dopamine receptor allosterically | DiscoveRx D2 beta-arrestin cells, luminescence, 90 min; 100% = 57 uM dopamine signal | 0.23% of 360,000 active | potentiation, % (test concentration not listed) | P14416 | AID 624464; active = potentiation of 50% or more; inconclusive = 30% to 50%; inactive = 30% or less;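 note: compound concentration not given in the record; tested on top of an EC20 dose of dopamine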
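D2 cells co-treated with compound plus 50 nM dopamine (EC20) for 90 min at 37 deg C to detect potentiation. Beta-arrestin recruitment was read as enzyme-fragment luminescence after 1 h at ambient temperature. Full response was set by 57 uM dopamine.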
D2 ag = agonists of human D2 dopamine receptor (beta-arrestin) | AID 624465 | activation, % (test concentration not listed) | 0.084% of 360,000 active | DiscoveRx PathHunter D2 beta-arrestin, luminescence, 90 min; 100% = 57 uM dopamine signal | P14416; in the data active = activation above about 40%; inconclusive = about 15% to 40%; inactive = below about 15%; note: compound concentration not given in the record; the text of the record calls up to 30% inactive
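DiscoveRx PathHunter D2 beta-arrestin cells (2,100/well) attached overnight, then compound-stimulated 90 min at 37 C in HBSS/10 mM HEPES/0.1% Tween-20 buffer; beta-galactosidase complementation read by luminescence after 1 h at ambient temperature. Dopamine 57 uM final (EC100) as control.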
gsp ag = gsp mutant agonism | gsp mutant cells, cAMP HTRF, 30 min; control for the full effect not named in the record | Potency, µM (titrated, usually from 76.9 µM), for inactives: top-dose activation (cAMP increase), usual class: activators | 0.13% of 340,000 active | AID 624287; active = well fitted activation curve with a large enough effect; inconclusive = small, poorly fitted or top-dose-only effect, or another doubt; inactive = no such curve, though single readings can be large or run the other way; cell line not stated here;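 note: phosphodiesterase inhibitor Ro 20-1724 added with compounds to block cAMP breakdown; potency is the fitted concentration of half-maximal effect; nearly all actives have a fitted effect of over 60% in size; about a fifth of the inactives were tested at one dose only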
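Cells in DMEM/10% FBS with G418 were pretreated with compounds in DMSO plus […] (300 uM stock) for 30 min at 37C. cAMP was measured by HTRF (cAMP-d2 plus anti-cAMP antibody-K) after 30 min at room temperature.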
gsp antag = gsp mutant antagonism | gsp-mutant cells, cAMP HTRF, 30 min; control for the full effect not named in the record | Potency, µM (titrated, usually from 76.9 µM), for inactives: top-dose activity change, negative = inhibition, hits mostly inhibitors | 0.4% of 340,000 active; active = falling curve of any shape with a large fitted effect; inconclusive = falling curve, mostly with a smaller effect; inactive = flat or rising curve; cell line not stated here;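 note: intracellular cAMP measured with PDE inhibitor Ro 20-1724 present during compound exposure; potency is the fitted concentration of half-maximal effect; % is set by controls: 0 for no effect and ±100 for the full control effect; nearly all actives have a fitted effect of over 65% in size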
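HTRF cAMP read-out (cAMP-d2 plus anti-cAMP antibody-K in lysis buffer, 30 min RT). Before lysis, cells are exposed to compounds with […] for 30 min at 37C in DPBS containing Ca/Mg, BSA and Tween 20.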
CtBP-E1A inh = inhibitors of CtBP/E1A interaction | AlphaScreen GST-E1A/His-CtBP binding, 1536-well; hits give low values; control for the full effect not named in the record | 0.49% of 340,000 active | activity change, % (concentration not given with the values) | AID 651724; in the data active means activity change below about -65%; inconclusive means about -30% to -65%; inactive means above about -30%; note: % is set by controls: 0 for no effect and ±100 for the full control effect
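Steps: dispense buffer (Tris pH 8.0, NaCl 300 mM, TCEP 1 mM, BSA, Tween 20); add 5X protein mix (GST-E1A, His-CtBP, 125 nM each); pin 23 nL compound; 2 h at 37 °C, dark; add 5X beads (50 ug/mL); 1 h; read.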
Six1-Eya2 inh = blocks human Six1 binding to Eya2; Q15475+O00167; AlphaScreen GST-Six1/His-Eya2 binding, biochemical; hits give low values; control for the full effect not named in the record; activity change, % (concentration not given with the values); 0.56% of 360,000 active; in the data active = activity change below about -65%; inconclusive = about -30% to -65%; inactive = above about -30%; note: % is set by controls: 0 for no effect and ±100 for the full control effect
Target sequence (O00167 whole entry, looked up): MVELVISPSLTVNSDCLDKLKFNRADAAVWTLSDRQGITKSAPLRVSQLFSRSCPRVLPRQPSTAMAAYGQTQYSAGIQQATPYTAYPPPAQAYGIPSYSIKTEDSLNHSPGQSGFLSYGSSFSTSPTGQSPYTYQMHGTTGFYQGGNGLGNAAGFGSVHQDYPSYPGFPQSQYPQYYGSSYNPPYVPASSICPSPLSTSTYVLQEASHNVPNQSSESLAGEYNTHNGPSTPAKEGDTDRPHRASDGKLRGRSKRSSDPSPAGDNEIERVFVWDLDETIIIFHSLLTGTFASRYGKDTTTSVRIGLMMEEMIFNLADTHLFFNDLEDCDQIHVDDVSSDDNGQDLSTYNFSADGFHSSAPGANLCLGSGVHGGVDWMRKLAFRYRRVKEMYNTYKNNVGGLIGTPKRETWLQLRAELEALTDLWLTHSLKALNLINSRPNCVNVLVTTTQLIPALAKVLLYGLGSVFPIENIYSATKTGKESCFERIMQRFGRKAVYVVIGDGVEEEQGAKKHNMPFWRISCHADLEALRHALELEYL
Target sequence (Q15475 whole entry, looked up): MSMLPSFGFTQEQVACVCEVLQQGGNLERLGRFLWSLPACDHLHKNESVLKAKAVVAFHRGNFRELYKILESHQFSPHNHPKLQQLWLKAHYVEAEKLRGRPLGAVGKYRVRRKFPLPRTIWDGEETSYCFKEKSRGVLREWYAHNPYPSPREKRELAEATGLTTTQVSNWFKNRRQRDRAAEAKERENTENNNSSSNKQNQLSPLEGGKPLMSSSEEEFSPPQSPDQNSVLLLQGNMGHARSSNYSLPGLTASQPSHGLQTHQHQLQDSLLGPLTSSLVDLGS
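AlphaScreen luminescence read after one hour at 37 °C in darkness. Pin-transferred compounds met GST-Six1 and His-Eya2 protein (5X stock 250 nM/500 nM) plus glutathione donor and Ni-chelate acceptor beads (5X, 50 ug/mL).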
An asterisk follows results filed as active; ? = inconclusive; . = no result given; [ ] = another dose, or the depositor's remark. Rows are unselected. Share with any hit: about 1.4%.

Start of the data: the first 2 compounds, to show the layout:
SMILES	D2 potentiator	D2 ag	gsp ag	gsp antag	CtBP-E1A inh	Six1-Eya2 inh
O=C(c1cnc2ccccn2c1=O)N1CCCc2ccccc21	-4	0.3	-19%	15%	8	5
COc1ccccc1NC(=O)CSc1nnc(Cc2cc(=O)[nH]c(=O)[nH]2)n1-c1ccccc1	-15	-2.5	-10%	8%	0	-2

Main list, from the start:
SMILES	D2 potentiator	D2 ag	gsp ag	gsp antag	CtBP-E1A inh	Six1-Eya2 inh
O=C(c1cnc2ccccn2c1=O)N1CCCc2ccccc21	-4	0.3	-19%	15%	8	5
COc1ccccc1NC(=O)CSc1nnc(Cc2cc(=O)[nH]c(=O)[nH]2)n1-c1ccccc1	-15	-2.5	-10%	8%	0	-2
CCOC(=O)N1CCN(C(=O)COc2ccc(S(=O)(=O)NC(C)C)cc2)CC1	-1	-3.6	-2%	-8%	-13	7
CCOC(=O)CC1C(=O)NCCN1S(=O)(=O)c1ccc(F)cc1 (stereo not drawn)	0	0.7	-22%	1%	-4	-1
COCCNC(=O)c1ccccc1NC(=O)c1ccccc1N(C)S(=O)(=O)c1ccccc1	-3	-2.1	12%	-2%	0	10
Cc1ccnc(NC(=O)COc2ccc3oc4c(c3c2)CCCC4)c1	-7	-5.8	1%	-26%	-2	0
O=C(NC(=S)NC1CCCC1)c1ccccc1	-4	-5.3	4%	13%	-16	-15
O=C(Nc1ccccc1)/C(=C/c1cccnc1)NC(=O)c1ccccc1	1	-1.2	-49%[inhibitor]	12%	3	-1
COc1cc(Cl)c(C)cc1NC(=O)COc1cc(C)nc(C(C)C)n1	-22	1.0	22%	8%	0	3
Cc1sc2ncnc(SCC(=O)N3CCCC(C(F)(F)F)C3)c2c1C (stereo not drawn)	1	6.4	-4%	7%	0	18
Cc1ccc(-n2c(SCC(=O)N(C)C3CCS(=O)(=O)C3)nc3ccccc3c2=O)c(C)c1 (stereo not drawn)	-7	2.8	0%	-27%	10	-6
COc1ccc(CCNC(=O)c2sc3nc4n(c(=O)c3c2C)CCC4)cc1	10	0.3	?	-5%	-19	-7
COc1ccc(NC(=S)N2CCC(NC(=O)c3ccc(OC)cc3)CC2)cc1	0	0.0	-35%[inhibitor]	0%	0	3
CCC(c1nnnn1Cc1ccc2c(c1)OCO2)N1CCN(CC)CC1 (stereo not drawn)	-12	-2.3	-7%[15.4 µM]	-14%	9	7
CCOc1ccc(N2C(=O)CC(NCc3ccc(S(N)(=O)=O)cc3)C2=O)cc1 (stereo not drawn)	-1	-3.8	?	12%	4	0
O=C(NCc1ccncc1)c1ccc(OCc2ccccc2)cc1	-7	2.2	-44%[inhibitor]	1%	4	-6
Cc1nn(Cc2ccc(Cl)cc2)c(C)c1NC(=O)Cn1nc([N+](=O)[O-])c(Cl)c1C	4	-2.6	9%	3%	0	27
CC(C)(C)c1ccc(S(=O)(=O)N2CCN(C3CCCC3)CC2)cc1	-5	-3.2	13%	4%	4	6
Cc1nnc(SCC(=O)Nc2ccc(F)cc2F)n(N)c1=O	13	-0.6	15%	7%	3	-1
CSc1ccccc1C(=O)NCCOc1ccccc1C	-8	1.1	-72%[inhibitor]	3%	3	1
CSCCC(NS(=O)(=O)c1ccc(C)cc1)C(=O)N1CCN(C(c2ccccc2)c2ccccc2)CC1 (stereo not drawn)	-13	2.1	-24%	-12%	-5	-16
Cc1nc2sc(C(c3cccs3)N3CCN(Cc4ccccc4)CC3)c(O)n2n1 (stereo not drawn)	-8	-2.6	-57%[inhibitor]	3%	-22	-4
O=S(=O)(c1ccccc1)c1nc(-c2cccs2)oc1NCCCn1ccnc1	-6	-0.8	-17%	-4%	-4	-20
CCOC(=O)c1ccccc1NC(=O)CSc1nc2ccccc2n1CC(=O)N1CCCC1	1	-1.9	12%	3%	-5	-2
CN(c1ccccc1)S(=O)(=O)c1cccc(C(=O)Nc2nn[nH]n2)c1	-3	-2.2	9%[15.4 µM]	3%	5	7
CN(C(=O)c1ccc(-c2ccccc2)cc1)C1CCCCC1	-14	-2.3	-4%[15.4 µM]	-1%	4	-7
CNc1nc(C(=O)O)nc(N2CCOCC2)n1	-2	-4.3	-5%	9%	?	?
Cc1ccc(C(=O)N/C(=C/c2ccccc2)C(=O)NCC2CCCO2)cc1 (stereo not drawn)	-5	-4.0	-11%[15.4 µM]	0%	1	-3
CCC(NC(=O)OC(C)(C)C)C(=O)Oc1ccc2c3c(c(=O)oc2c1)CCC3 (stereo not drawn)	-13	-1.6	27%	15%	-23	-22
N#Cc1ccccc1NC(=O)COC(=O)/C=C/c1ccc(S(=O)(=O)N2CCOCC2)cc1	-1	-1.0	-4%	-7%	-2	-1

Twelve of the compounds above, with values ahead of the structure.
D2 potentiator	D2 ag	gsp ag	gsp antag	CtBP-E1A inh	Six1-Eya2 inh	Structure
-7	2.2	-44%[inhibitor]	1%	4	-6	O=C(NCc1ccncc1)c1ccc(OCc2ccccc2)cc1
4	-2.6	9%	3%	0	27	Cc1nn(Cc2ccc(Cl)cc2)c(C)c1NC(=O)Cn1nc([N+](=O)[O-])c(Cl)c1C
-5	-3.2	13%	4%	4	6	CC(C)(C)c1ccc(S(=O)(=O)N2CCN(C3CCCC3)CC2)cc1
13	-0.6	15%	7%	3	-1	Cc1nnc(SCC(=O)Nc2ccc(F)cc2F)n(N)c1=O
-8	1.1	-72%[inhibitor]	3%	3	1	CSc1ccccc1C(=O)NCCOc1ccccc1C
-13	2.1	-24%	-12%	-5	-16	CSCCC(NS(=O)(=O)c1ccc(C)cc1)C(=O)N1CCN(C(c2ccccc2)c2ccccc2)CC1 (stereo not drawn)
-8	-2.6	-57%[inhibitor]	3%	-22	-4	Cc1nc2sc(C(c3cccs3)N3CCN(Cc4ccccc4)CC3)c(O)n2n1 (stereo not drawn)
-6	-0.8	-17%	-4%	-4	-20	O=S(=O)(c1ccccc1)c1nc(-c2cccs2)oc1NCCCn1ccnc1
1	-1.9	12%	3%	-5	-2	CCOC(=O)c1ccccc1NC(=O)CSc1nc2ccccc2n1CC(=O)N1CCCC1
-3	-2.2	9%[15.4 µM]	3%	5	7	CN(c1ccccc1)S(=O)(=O)c1cccc(C(=O)Nc2nn[nH]n2)c1
-14	-2.3	-4%[15.4 µM]	-1%	4	-7	CN(C(=O)c1ccc(-c2ccccc2)cc1)C1CCCCC1
-2	-4.3	-5%	9%	?	?	CNc1nc(C(=O)O)nc(N2CCOCC2)n1

Further structures follow:
SMILES	D2 potentiator	D2 ag	gsp ag	gsp antag	CtBP-E1A inh	Six1-Eya2 inh
O=C1CC(C(=O)N2CCOCC2)C2(CCCCC2)O1 (stereo not drawn)	-7	-1.7	10%	-1%	5	2
O=C(NCC(O)c1ccc([N+](=O)[O-])cc1)c1cccc(S(=O)(=O)N2CCOCC2)c1 (stereo not drawn)	2	-1.6	11%	8%	-3	18
CC(C)(C)C(=O)NC(n1cnc2c(N3CCOCC3)ncnc21)C(Cl)(Cl)Cl (stereo not drawn)	-7	-2.4	-13%[15.4 µM]	5%	8	3
COc1cccc(-c2c(-c3cc(OC)cc(OC)c3)n(C)c3ccc(-c4ccc5cc[nH]c5c4)cc23)c1	-1	8.3	9%	11%	?	0
CCN(CCNC(=O)Nc1ccc(Cl)cc1)c1ccccc1	-26	1.2	1%	?	-18	-13
O=C(COc1ccccc1F)Nc1nnc(C2CCCC2)s1	3	-1.8	-22%	5%	.	0
CC1CCN(C(=O)c2ncn(Cc3ccccc3)c2C(=O)N2CCC(C)CC2)CC1	-7	-3.2	17%	-1%	2	6
C=CCn1c(SCC(=O)NCCO)nc2sc(C)c(C)c2c1=O	4	-3.4	14%[15.4 µM]	11%	-1	4
CCn1c(CCl)nc2cc(S(=O)(=O)N3CCOCC3)ccc21	-14	-0.7	9%[15.4 µM]	-1%	-4	-4
COc1cc2ncnc(NCc3cc(F)ccc3F)c2cc1OC	-10	-0.3	-25%[15.4 µM]	-1%	8	-10
CN1CC[n+]2cnc3ccccc3c21	2	-0.9	-4%	7%	5	1
C=CCc1cc(C=O)cc(OC)c1OCc1ccc(Cl)cc1	-23	-0.3	-23%	-15%	80	65
CN(CCc1ccccn1)C(=O)Nc1ccc(C(C)(C)C)cc1	-27	0.7	2%[15.4 µM]	-4%	-22	3
CC/C(O)=N\S(=O)(=O)c1ccc(N=NN(C)C)cc1	-3	-4.7	-63%	11%	3	0
O/N=C/c1ccccc1Oc1ccccc1	-35	-3.4	?	6%	8	0
Cc1ccc(-c2ccc3c(c2)O[C@H](CN(C)Cc2cncnc2)[C@@H](C)CN([C@H](C)CO)S3(=O)=O)cc1	.	2.7	29%	.	1	-4
COc1ccccc1OCCNC(=O)C1CC(=O)N(c2cccc(SC)c2)C1 (stereo not drawn)	-4	-5.0	-36%[15.4 µM]	-11%	-7	-13
O=C(CCCc1c[nH]c2ccccc12)N1CCN(c2ccc(N3CCOCC3)nn2)CC1	-2	-4.7	1%	-10%	-8	9
c1cc2[nH]c3ccncc3c2cn1	-15	-3.8	26%	.	0	41
O=C1c2ccccc2NC(c2ccc(O)c(O)c2)N1c1ccccc1Cl (stereo not drawn)	-1	-5.6	14%	-6%	.	16
COc1cccc(NC(=O)c2oc3ccccc3c2NC(C)=O)c1	-17	-3.9	0%	-8%	8	3
Cc1ccncc1C(N)=O	-1	-2.8	?	24%	1	-1
OC[C@@H]1CN(Cc2cccs2)C[C@H](n2cnc3c(N4CCCC4)ncnc32)O1	-5	-1.2	.	.	4	-3
Cc1ccc(C(=O)CC(C(=O)O)n2cncn2)cc1 (stereo not drawn)	-5	-2.1	-3%[15.4 µM]	0%	1	-16
Cc1cccnc1Nc1nc(-c2ccccn2)cs1	-36	-8.0	?	-29%	-95*	-78*
Cc1ccc(NC(=O)c2ccc(Cl)c(S(=O)(=O)N3CCCCC3)c2)nc1	0	2.4	1%	-17%	-4	-10
Cc1ccc(C2c3c(oc4ccccc4c3=O)C(=O)N2CCCN2CCOCC2)o1 (stereo not drawn)	-7	-0.5	9%	-12%	-2	0
CCN(CC)S(=O)(=O)c1ccc(C(=O)Nc2nnc(COC)o2)cc1	-3	-2.3	-1%	2%	-19	-16
Cc1cc(=O)oc2cc(NC(=O)Cc3ccccc3)ccc12	-10	-2.9	-30%[15.4 µM]	5%	9	0
COc1ccc(CCNC(=S)NC(=O)c2ccccc2)cc1OC	1	-1.0	-7%	?	-9	-11
Cc1ccc(NC(=O)C/C(N)=N/OC(=O)Nc2ccc(C)c(Cl)c2)cc1	-3	-1.4	9%[15.4 µM]	14%	1	0
O=C(NC(=S)Nc1ccccc1Br)C1CCC1	-9	-1.6	?	2%	4	4
O=C(Cc1ccccc1[N+](=O)[O-])c1ccc2c(c1)OCO2	-11	-6.2	-14%	1%	-6	0
COc1ccc(C)c2sc(=NC(=O)c3ccccc3)n(C)c12	-11	-4.4	11%	8%	-1	5
CN(C)c1nc2c(c(=O)[nH]c(=O)n2C)n1Cc1ccccc1Br	-7	-1.2	-25%	-18%	0	1

High-throughput results deposited in PubChem by National Center for Advancing Translational Sciences (NCATS).
